TRPML1 agonist – activates the human TRPML1 channel; Q9GZU1; 0.12% of 410,000 active; TRPML1-expressing cells, Ca2+ dye fluorescence, FDSS; host cell line not named in the record; reference of the full effect not given here; activation, % (no concentration beside the values); in the data active = activation above about 50%; inconclusive = about 30% to 50%; inactive = below about 30%; note: 0% is about no effect; the text of the record puts the active cut at 80%
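Cells: TRPML1-DL, 1X Tet inducer, ~16 h at 37 degrees C/5% CO2. Dye: ABD Ca8 no-wash + quencher, 45-90 min RT. Read: 10 s baseline, compound add, 110 s agonist phase; 54-4 EC80 (4uM final), 110 s antagonist phase.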
TRPML1 blocker – blocks the human TRPML1 channel. Q9GZU1. TRPML1-inducible cells, Ca2+ dye fluorescence, FDSS; stronger effect = lower value; inhibition of EC80 agonist-evoked calcium signal. activity change, negative = inhibition, % (no concentration beside the values). 0.02% of 390,000 active; in the data active means activity change below about -50%; inconclusive means about -30% to -50%; inactive means above about -30%;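 note: stimulus is agonist 54-4 at its EC80 concentration; % is set by controls: 0 for no effect and ±100 for the full control effect; compound concentration not given in the record; the text of the record puts the active cut at -80%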
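TRPML1-DL cells, Tet-induced overnight (~16 h, 37 °C) at 1,500 cells/well, were loaded with Ca8 no-wash dye plus quencher for 45-90 min at room temperature. Compounds were pinned during FDSS kinetic reading; agonist 54-4 at EC80 (4 uM final) then added.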
CtBP-E1A inh – inhibitors of CtBP/E1A interaction; activity change, % (no concentration beside the values); 0.49% of 340,000 active; AlphaScreen GST-E1A/His-CtBP binding, 1536-well; stronger effect = lower value; control for the full effect not named in the record; in the data active means activity change below about -65%; inconclusive means about -30% to -65%; inactive means above about -30%; note: % is set by controls: 0 for no effect and ±100 for the full control effect; compound concentration not given in the record
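GST-E1A and His-tagged CtBP (125 nM each as 5X stock) were preincubated with pin-transferred compound for 2 h at 37 °C in the dark, then glutathione donor and nickel acceptor beads were added for 1 h before AlphaScreen reading.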
D2 agonist – human D2 receptor agonism in beta-arrestin assay; DiscoveRx PathHunter D2 beta-arrestin, luminescence, 90 min; 100% = 57 uM dopamine signal; activation, % (test concentration not listed); P14416; 0.084% of 360,000 active; in the data active = activation above about 40%; inconclusive = about 15% to 40%; inactive = below about 15%; note: compound concentration not given in the record; the text of the record calls up to 30% inactive
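Agonist mode: compounds alone added to overnight-plated D2 PathHunter cells for 90 min at 37 C, with 57 uM final dopamine (EC100) defining full response. Beta-arrestin recruitment detected by chemiluminescent reagent, read after 1 h at ambient temperature.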
Six1-Eya2 inh – blocks human Six1 binding to Eya2; activity change, % (test concentration not listed); Q15475+O00167; AID 651725; 0.56% of 360,000 active; AlphaScreen GST-Six1/His-Eya2 binding, biochemical; stronger effect = lower value; control for the full effect not named in the record; in the data active = activity change below about -65%; inconclusive = about -30% to -65%; inactive = above about -30%; note: % is set by controls: 0 for no effect and ±100 for the full control effect; compound concentration not given in the record
Target sequence (O00167 whole entry, looked up): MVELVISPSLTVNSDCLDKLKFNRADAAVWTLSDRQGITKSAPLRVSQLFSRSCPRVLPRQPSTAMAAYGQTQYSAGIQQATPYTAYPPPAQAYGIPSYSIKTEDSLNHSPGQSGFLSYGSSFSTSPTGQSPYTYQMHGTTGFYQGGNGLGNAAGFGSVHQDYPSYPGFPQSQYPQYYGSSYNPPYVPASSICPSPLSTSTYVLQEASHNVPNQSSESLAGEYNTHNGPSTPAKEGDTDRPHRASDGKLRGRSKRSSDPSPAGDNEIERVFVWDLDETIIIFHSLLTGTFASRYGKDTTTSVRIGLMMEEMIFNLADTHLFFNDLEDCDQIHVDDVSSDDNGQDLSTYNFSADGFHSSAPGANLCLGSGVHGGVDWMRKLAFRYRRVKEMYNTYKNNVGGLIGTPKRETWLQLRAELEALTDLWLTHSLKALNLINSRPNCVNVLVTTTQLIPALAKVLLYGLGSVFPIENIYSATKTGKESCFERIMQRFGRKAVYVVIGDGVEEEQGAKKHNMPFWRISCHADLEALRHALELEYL
Target sequence (Q15475 whole entry, looked up): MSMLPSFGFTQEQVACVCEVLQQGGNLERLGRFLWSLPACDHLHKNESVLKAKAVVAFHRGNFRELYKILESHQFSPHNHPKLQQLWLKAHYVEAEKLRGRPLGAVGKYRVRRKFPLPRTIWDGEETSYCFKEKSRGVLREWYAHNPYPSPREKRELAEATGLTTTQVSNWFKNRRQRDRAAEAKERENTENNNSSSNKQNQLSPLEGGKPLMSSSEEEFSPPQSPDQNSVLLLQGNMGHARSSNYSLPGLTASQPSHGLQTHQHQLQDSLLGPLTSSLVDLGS
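GST-Six1 + His-Eya2 (5X stock: 250/500 nM); Tris pH 8.0, 300 mM NaCl, 0.05% BSA, 0.02% Tween 20; GSH donor/Ni acceptor beads; 1 h 37 °C dark; AlphaScreen readout.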
PINK1 modulator – modulators of PINK1 expression; 0.2% of 410,000 active; Potency, µM (highest dose often 76.6 µM), without a hit: top-dose activation (PINK1 increase), usual class: activators; PINK1 immunofluorescence, high-content cytometry, 24 h; active = well fitted activation curve with a large enough effect; inconclusive = small, poorly fitted or top-dose-only effect; inactive = flat fitted curve, though single readings scatter; cell line not stated here;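 note: potency is the fitted concentration of half-maximal effect; % of control where 0% means no effect; nearly all actives have a fitted effect of over 65% in size; a mitochondrial uncoupler was the plate control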
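Compound titrations (5 concentrations, 24 h) on a stable cell line; DMSO and CCCP controls. Endpoint: fixed-cell PINK1 immunofluorescence with mitochondrial, cell and nuclear markers, scanned by microplate cytometer.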
* marks the source's active call; other numbers are inactive results; u = inconclusive; x = no result given; & = joins results of further samples; [ ] = another dose, or the depositor's remark.

SMILES	TRPML1 agonist	TRPML1 blocker	CtBP-E1A inh	D2 agonist	Six1-Eya2 inh	PINK1 modulator
CCCCN(C)CCNC(=O)C1CCCN(S(=O)(=O)c2ccc3c(c2)oc(=O)n3C)C1 (centres undefined)	-0.5	5	x	x	x	0.1%
CN(Cc1ccccc1)C(=O)c1ncn(Cc2ccccc2)c1C(=O)N(C)Cc1ccccc1	1.0	-3	-3	9.4	1	-0.6%
CCOC(=O)c1cc(-c2ccccc2)nc2ccc(C)cc12	1.1	3	x	-7.3	54	0.5%
O=C1CC(c2ccccc2)CC(O)=C1C=NCc1ccc(Cl)c(Cl)c1 (centres undefined)	-1.0	-9	4	-3.6	-2	-1.6%
CC1CCCCN1C(=O)CCC(=O)Nc1nnc(C(F)(F)F)s1 (centres undefined)	2.8	6	x	1.6	4	0.3%
Cc1ccc(-c2nnc(C)c(N3CCCC3)n2)cc1	0.9	-3	-2	-1.0	0	3.0%
COc1cc(C)c(NC(=S)Nc2ccc(C)c(Cl)c2)cc1OC	0.0	-24	-6	-1.0	-7	-0.6%
O=C(O)c1cccc2c1C(=O)c1ccc(-c3ccc(F)cc3OCc3ccccc3)cc1S2(=O)=O	1.4	-19	-25	-3.3	-8	-0.9%
Cc1nn(-c2ccccc2)c(C)c1NC(=O)CCl	0.5	26	-13	-0.5	8	-0.9%
CCOc1ccc(CNC(=O)C2CC(=O)N(C3CCCC3)C2)cc1OC (centres undefined)	0.1	0	5	-2.0	3	x
CCOc1ccc(CNC(=O)Cn2cc3c(n2)-c2c(oc(C(=O)N4CCOCC4)c2C)CC3)cc1	1.8	10	x	x	x	1.0%
CCOC(=O)c1ccccc1NC(=O)c1nn(-c2ccc(C)cc2)c(=O)n(C)c1=O	-0.4	-1	x	x	x	0.3%
CN(Cc1ccccc1)C(=O)C1CCN(S(=O)(=O)c2ccc(-n3cnnn3)cc2)CC1	0.4	-2	2	1.2	7	-0.8%
N#CC(C(=O)NCCc1ccccc1)c1nc2ccccc2nc1N1CCOCC1 (centres undefined)	1.8	25	-3	-1.1	6	6.8%
O=C(CN1C(=O)NC2(CCCC2)C1=O)N1CCN(S(=O)(=O)c2ccccc2)CC1	0.2	-3	4	-1.6	15	-0.2%
O=C(CCc1ccccc1)NNC(=O)Cc1ccccc1	-0.4	1	2	5.6	5	0.2%
Cc1ccc(-c2n[nH]c3c2C(c2cccc(O)c2)N(c2ccc(C(=O)O)cc2)C3=O)cc1 (centres undefined)	-1.1&0.2	9&61	-2	-3.0	-5	1.0%&1.9%
O=C(COC(=O)c1ccc(Br)c(S(=O)(=O)N2CCOCC2)c1)NCCc1ccccc1	-0.4	-12	9	-1.2	15	-1.4%
CN1CCN(CC(=O)NC23CC4CC(CC(C4)C2)C3)CC1	-0.7	0	8	1.0	1	0.7%
CCc1cccc(NC(=O)C2CCN(C(=O)c3cnn(-c4ccccc4)c3-n3cccc3)CC2)c1	0.1	-7	x	x	x	0.6%
Cc1cc(=O)n(CC(=O)Nc2cc(Cl)ccc2C)c(C(C)C)n1	-0.8	-10	x	0.2	3	0.8%
Cn1c(CNC(=O)CCNC(=O)c2cccc(F)c2)cc(=O)n(C)c1=O	-0.1	15	x	-1.7	24	3.6%
C=CCNC(=S)/N=c1/scc(C)n1C	2.2	83	1	-1.9	0	0.2%
N#Cc1ccccc1S(=O)(=O)N1CCN(C(=O)[C@@H]2CCCN2C(=O)c2cccs2)CC1	-0.1	3	x	-6.2	3	-0.5%
CCn1nc(C)c(NC(=O)/C=C/c2ccc(OC)c(COc3ccc(Cl)cc3Br)c2)c1C	-0.5	0	9	0.7	11	10%
CC(=O)Nc1ccc(S(=O)(=O)NC2(C(F)(F)F)NC(=O)N(c3ccc(Cl)cc3)C2=O)cc1 (centres undefined)	-0.7&1.4	4&-5	2	-1.8	5	0.8%
COC(=O)c1cc(C(=O)c2ccccc2)n2c(=O)/c(=C\N(C)C)sc12	0.8	-1	-7	-1.5	-21	4.9%
CCOC(=O)/C(=C/c1ccc(OC)cc1)NC(=O)c1ccco1	1.1	-10	-13	-3.5	-6	-1.4%
O=C(Nn1cnnc1)c1csc2ccccc12	-0.4	9	7	0.0	5	-3.1%[38.3 µM]
O=S(=O)(c1cccs1)N1CCN(C/C=C/c2ccccc2)CC1	2.5	-26	-3	-1.6	-12	0.2%
CNc1nc(-c2c(C)n(C)c3ccc(OC)cc23)cs1	-0.9	6	u	-2.1	-29	1.9%
CC(=O)Nc1ccccc1/C=C/c1ccc2c(C)cc(C)c(O)c2n1	-0.6	1	3	-4.2	-11	u
COc1ccc(-n2cc3c(c2-c2cccc(Br)c2)c(=O)n(C)c(=O)n3C)cc1OC	1.3	20	x	x	x	1.7%
CC(C)NS(=O)(=O)c1ccc(CCC(=O)Nc2ccc3c(c2)OCCO3)cc1	0.4	-11	-10	-3.8	-2	1.6%
N#Cc1ccccc1N=Cc1ccc(Br)cc1	0.0	-4	2	1.0	-4	2.0%
Cc1ccc(NC(=O)CN2C(=O)N/C(=C/c3cc(C)n(-c4cccc(C(=O)O)c4)c3C)C2=O)cc1	-0.2	-8	-19	1.3	u	-0.5%
C/C(Cc1ccccc1)=N\NC(=O)CNC(=O)c1ccccc1Cl	-0.3	-12	10	2.2	10	-0.1%
COc1ccc(-n2c(SCC(=O)Nc3nccs3)nc3c(c2=O)SCC3)cc1	0.6	12	-1	-0.4	1	0.3%
CCOC(=O)c1c(S(=O)(=O)NCC(C)c2ccccc2)c(C)n(C)c1C (centres undefined)	0.7	2	-2	4.5	-6	0.7%
CCOc1ccc(CCNC(=O)CCn2cccc2)cc1OCC	-0.9	-19	-2	-3.6	-6	2.4%
N=c1c(S(=O)(=O)c2ccc(Br)cc2)cc2c(=O)n3ccccc3nc2n1Cc1ccccc1	-0.8	33	9	-1.6	1	1.9%
O=C(O)c1ccc2c(c1)C(=O)N(c1nccs1)C2=O	0.8	-12	-3	-1.3	4	-1.9%
Cc1ccc(N(CCC#N)C(=O)CSc2ccc3c(c2)OCCO3)cc1	-1.0	-18	-8	-4.7	-5	-1.0%
Nc1cccc2c1C(=O)N(CC(=O)NC13CC4CC(CC(C4)C1)C3)C2=O	-0.2	-15	-2	-4.1	3	9.5%
O=C(Cc1ccc(Br)cc1)NCCc1ccc(Cl)cc1Cl	0.7	-6	-1	-3.7	-5	u
CN(C)c1ccnc2c[cH-]cc12.[Fe].c1ccc(-[c-]2[c-](-c3ccccc3)[c-](-c3ccccc3)[c-](-c3ccccc3)[c-]2-c2ccccc2)cc1 (centres undefined)	-0.2&-0.5	-8&29	-21&-13	-3.4&-1.9	-27&-18	u
CCOCCCNC(=O)CCc1nnc2ccc(N3CCN(c4cccc(OC)c4)CC3)nn12	-0.4	-2	x	x	x	0.5%
COc1ccccc1N1CCN(C(=O)CSc2ncnc3scc(-c4ccccc4)c23)CC1	3.8	-5	-20	2.0	-12	-0.5%

An excerpt from above in order of SMILES length, lowest first.
SMILES	TRPML1 agonist	TRPML1 blocker	CtBP-E1A inh	D2 agonist	Six1-Eya2 inh	PINK1 modulator
O=C(O)c1ccc2c(c1)C(=O)N(c1nccs1)C2=O	0.8	-12	-3	-1.3	4	-1.9%
C/C(Cc1ccccc1)=N\NC(=O)CNC(=O)c1ccccc1Cl	-0.3	-12	10	2.2	10	-0.1%
Nc1cccc2c1C(=O)N(CC(=O)NC13CC4CC(CC(C4)C1)C3)C2=O	-0.2	-15	-2	-4.1	3	9.5%
CN(C)c1ccnc2c[cH-]cc12.[Fe].c1ccc(-[c-]2[c-](-c3ccccc3)[c-](-c3ccccc3)[c-](-c3ccccc3)[c-]2-c2ccccc2)cc1 (centres undefined)	-0.2&-0.5	-8&29	-21&-13	-3.4&-1.9	-27&-18	u

Going on with the list.
SMILES	TRPML1 agonist	TRPML1 blocker	CtBP-E1A inh	D2 agonist	Six1-Eya2 inh	PINK1 modulator
CCOc1ccc(CCNC(=O)c2ccccc2OCc2c(C)noc2C)cc1OCC	1.6	-7	-25	3.0	-3	2.5%
Cc1cc(OCC(=O)O/N=C(\N)c2ccccc2)ccc1Cl	1.9	-19	13	0.2	28	3.3%
CC(C(=O)Nc1ccc(C#N)cc1)N(C)CC(=O)Nc1cccc(F)c1 (centres undefined)	0.3	4	-15	2.6	6	-0.5%
COc1cc2c(cc1OC)C(c1cc3cc(C)ccc3[nH]c1=O)N(C(=O)c1ccco1)CC2 (centres undefined)	-0.5	-9	-2	-4.8	0	4.4%
CCC(=O)N(Cc1cc2cc(OC)ccc2[nH]c1=O)c1ccc(C)cc1C	-0.7	-1	-3	-3.3	-1	-3.5%
Nc1ccc2c(c1)C(=O)c1cc([N+](=O)[O-])ccc1-2	0.3	-9	-1	-2.2	-14	2.0%
CC(C)CCN1CCN(Cc2cc3ccccc3[nH]2)CC1CCO (centres undefined)	-0.6	-21	x	-1.9	1	-1.0%
Cc1ccc(F)c(NC(=O)/C(C#N)=C(\O)c2ccc(C(C)(C)C)cc2)c1	1.2	-5	x	-5.8	-11	4.3%
COc1ccccc1NC(=O)N1CCc2[nH]c3ccc(Cl)cc3c2C1	0.1	-5	-13	-2.6	-6	2.4%
CCOCCCNC(=O)c1ccc2c(=O)n(CCCOCC)c(=S)[nH]c2c1	0.9	-5	-2	-1.1	1	2.1%
CCc1ccc(-c2nn(CC(=O)NC3CCCCC3)c3c2cnc2ccc(C)cc23)cc1	0.0	-17	x	x	x	-0.2%
CCNc1nc(NCC)nc(N/N=C/c2ccc(Br)cc2)n1	0.9	3	1	-4.2	-15	3.0%
O=C(/C=C/c1ccc(O)c(O)c1)c1ccccc1O	0.3	-8	1	-2.5	-5	-1.2%
N#CC1=C(N)Oc2n[nH]c(-c3ccc(F)cc3)c2C1c1cccc(OC(=O)N2CCOCC2)c1 (centres undefined)	-0.8	4	-1	-1.4	-2	0.0%
CCN(CC)C(=O)C(C)N(C#N)c1nc(SC)nc(N(C)C)n1 (centres undefined)	0.7	13	2	-1.5	-2	-2.1%[38.3 µM]
CC(=O)c1ccc(NC(=O)c2nc(-c3ccccc3)n(-c3ccc(C)cc3)n2)cc1	0.4	16	x	x	x	-1.3%
CN1/C(=C\C(=O)c2ccco2)c2ccccc2CC1(C)C	0.3	9	8	0.3	-1	x
CCC1CCC(C(=O)NC(C(=O)NCCN2CCOCC2)C(C)C)CC1 (centres undefined)	2.5	2	4	-0.5	6	2.4%
CC(C)(C)c1ccc(/C=N/Nc2ccc(C(=O)O)cc2)cc1	0.3	-3	-3	1.7	-15	19%
CCCn1ccc(O)c(Cc2ccc(Cl)cc2)c1=O	0.2	-4	0	3.1	-3	-1.6%
COc1ccc(/C=C(\C#N)C(=O)OCC(=O)Nc2c(C)cccc2C(C)C)cc1	-0.7	7	6	-0.1	-2	-1.4%
Oc1ccc(CN2CCCCC2)c2cccnc12	-0.1	2	-90*	0.2	-91*	-3.7%[38.3 µM]
CN1CCN(CC(=O)Nc2ccc([N+](=O)[O-])cc2Br)CC1	0.4	3	-21	-1.8	15	-2.2%

This is a random part of the collection (roughly 1% active in at least one column).
